CtBP-E1A blk: qHTS Assay for Inhibitors of the CtBP/E1A Interaction; CtBP / adenovirus E1A interaction (AlphaScreen); AlphaScreen GST-E1A/His-CtBP binding, 1536-well; stronger effect = lower value; control for the full effect not named in the record; activity change, % (concentration not given with the values); actives 0.49% (n = 340,000); in the data active means activity change below about -65%; inconclusive means about -30% to -65%; inactive means above about -30%; further: on the % scale 0 is the no-effect control and ±100 the full control effect
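Steps: dispense buffer (Tris pH 8.0, NaCl 300 mM, TCEP 1 mM, BSA, Tween 20); add 5X protein mix (GST-E1A, His-CtBP, 125 nM each); pin 23 nL compound; 2 h at 37 °C, dark; add 5X beads (50 ug/mL); 1 h; read.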
Six1-Eya2 inh: qHTS Assay for Inhibitors of the Six1/Eya2 Interaction; Homeobox protein SIX1 (Homo sapiens) + Protein phosphatase EYA2 (Homo sapiens), …; AlphaScreen GST-Six1/His-Eya2 binding, biochemical; stronger effect = lower value; control for the full effect not named in the record; activity change, % (no concentration beside the values); actives 0.56% (n = 360,000); in the data active = activity change below about -65%; inconclusive = about -30% to -65%; inactive = above about -30%; further: on the % scale 0 is the no-effect control and ±100 the full control effect; compound concentration not given in the record
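GST-Six1 + His-Eya2 (5X stock: 250/500 nM); Tris pH 8.0, 300 mM NaCl, 0.05% BSA, 0.02% Tween 20; GSH donor/Ni acceptor beads; 1 h 37 °C dark; AlphaScreen readout.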
TRPML1 agonist: qHTS for Agonists of the Human Mucolipin Transient Receptor Potential 1 (TRPML1). TRPML1-expressing cells, Ca2+ dye fluorescence, FDSS; host cell line not named in the record; reference of the full effect not given here. Mucolipin-1 (Homo sapiens), Q9GZU1. actives 0.12% (n = 410,000). activation, % (no concentration beside the values). AID 624414, 2012; in the data active = activation above about 50%; inconclusive = about 30% to 50%; inactive = below about 30%; further: 0% is about no effect; the text of the record puts the active cut at 80%
Target sequence (Q9GZU1 whole entry, looked up): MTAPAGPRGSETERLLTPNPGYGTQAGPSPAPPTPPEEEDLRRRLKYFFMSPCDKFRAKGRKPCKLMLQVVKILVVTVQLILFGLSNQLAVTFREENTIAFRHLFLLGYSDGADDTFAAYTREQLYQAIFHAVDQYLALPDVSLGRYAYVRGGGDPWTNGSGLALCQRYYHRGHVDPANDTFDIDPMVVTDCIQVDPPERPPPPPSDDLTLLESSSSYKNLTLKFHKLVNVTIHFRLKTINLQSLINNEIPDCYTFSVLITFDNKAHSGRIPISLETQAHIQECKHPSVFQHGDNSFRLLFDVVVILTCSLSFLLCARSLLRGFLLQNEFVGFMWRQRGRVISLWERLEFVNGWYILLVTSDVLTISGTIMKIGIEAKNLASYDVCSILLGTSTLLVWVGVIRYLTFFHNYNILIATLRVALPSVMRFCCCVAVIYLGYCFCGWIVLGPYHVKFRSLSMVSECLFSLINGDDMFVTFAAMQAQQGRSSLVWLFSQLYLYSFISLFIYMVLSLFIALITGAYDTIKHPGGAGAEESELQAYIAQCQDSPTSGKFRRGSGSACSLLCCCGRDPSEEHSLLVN
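TRPML1-DL cells, Tet-induced overnight (~16 h, 37 degrees C), loaded 45-90 min at room temperature with Ca8 no-wash calcium dye plus quencher. FDSS fluorescence: 10 s baseline, compound pin-transfer, 110 s agonist read, then EC80 54-4 (4uM final) and 110 s antagonist read.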
TRPV1 PAM: HTS Assay for Compounds that Act as Potentiators of the Vanilloid Receptor 1; TRPV1-expressing cells, Fluo-8 calcium influx, capsaicin EC20 potentiation; host cell line not named in the record; control for the full effect not named in the record; potentiation, % at 8.33 µM; actives 0.02% (n = 320,000); AID 540277, 2011; active means potentiation above 80%; inconclusive means 30% to 80%; inactive means below 30%; further: 0% is about no effect
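Cells expressing TRPV1 were dye-loaded with Fluo-8 and read kinetically: 10 s baseline, 3 min after compound (agonist portion), then 2 min after EC20 capsaicin (allosteric enhancer portion). Calcium-bound dye fluorescence at 480/520 nm.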
TRPML1 blocker: qHTS for Inhibitors of the Human Mucolipin Transient Receptor Potential 1 (TRPML1) | Mucolipin-1 (Homo sapiens), Q9GZU1 | TRPML1-inducible cells, Ca2+ dye fluorescence, FDSS; stronger effect = lower value; inhibition of EC80 agonist-evoked calcium signal | activity change, negative = inhibition, % (test concentration not listed) | actives 0.02% (n = 390,000); in the data active means activity change below about -50%; inconclusive means about -30% to -50%; inactive means above about -30%;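 further: stimulus is agonist 54-4 at its EC80 concentration; on the % scale 0 is the no-effect control and ±100 the full control effect; compound concentration not given in the record; the text of the record puts the active cut at -80%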
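Calcium fluorescence in TRPML1-DL cells induced overnight with Tet: a 110 s read after compound pin addition, then a 110 s antagonist read after challenge with 54-4 at 4 uM final (EC80).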
D2 PAM: Beta-Arrestin HTS for Positive Allosteric Modulators of the Human D2 Dopamine Receptor: Potentiators; potentiation, % (concentration not given with the values); actives 0.23% (n = 360,000); DiscoveRx D2 beta-arrestin cells, luminescence, 90 min; 100% = 57 uM dopamine signal; active = potentiation of 50% or more; inconclusive = 30% to 50%; inactive = 30% or less;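 further: compound concentration not given in the record; tested on top of an EC20 dose of dopamine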
Target sequence (P14416 whole entry, looked up): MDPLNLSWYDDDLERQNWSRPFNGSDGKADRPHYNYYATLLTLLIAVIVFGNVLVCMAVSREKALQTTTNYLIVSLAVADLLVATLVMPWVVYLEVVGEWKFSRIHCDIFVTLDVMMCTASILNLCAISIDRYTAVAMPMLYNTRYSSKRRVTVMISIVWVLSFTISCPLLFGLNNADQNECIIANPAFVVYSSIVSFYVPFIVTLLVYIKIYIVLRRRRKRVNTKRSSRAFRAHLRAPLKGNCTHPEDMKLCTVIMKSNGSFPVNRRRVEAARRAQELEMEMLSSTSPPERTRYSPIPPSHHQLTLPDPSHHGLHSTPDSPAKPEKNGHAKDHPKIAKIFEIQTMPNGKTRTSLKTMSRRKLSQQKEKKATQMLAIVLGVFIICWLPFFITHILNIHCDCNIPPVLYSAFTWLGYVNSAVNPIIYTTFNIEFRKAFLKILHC
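PathHunter D2 cells, attached overnight at 37 deg C, received compound in DMSO plus dopamine at EC20 (50 nM final) for 90 min at 37 deg C. Beta-arrestin recruitment was read as luminescence after 1 h with detection reagent at ambient temperature.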
Starred values were filed as active, the others as inactive; ? = inconclusive; . = no result given; & = joins results of further samples.

SMILES	CtBP-E1A blk	Six1-Eya2 inh	TRPML1 agonist	TRPV1 PAM	TRPML1 blocker	D2 PAM
Cc1ccc(CNc2nc3ccccc3n3cnnc23)cc1	-24	5	0.3&0.3	5	19&4	-5
COCC(=O)NCCc1nc(-c2ccccc2)cs1	3	-2	-0.7	6	15	-7
COc1ccc(Sc2cc(C(F)(F)F)nc(-c3ccccn3)n2)cc1	-3	6	0.3	6	-2	-2
CCCCn1cnc2c(Sc3c([N+](=O)[O-])ncn3C)nc(N)nc21	-8	-6	-0.7	.	20	-6
O=C1CC(c2cccs2)CC2=C1C(c1ccccc1)n1ncnc1N2 (stereo not drawn)	26	12	1.0	-8	33	-5
CCOC1=C/C(=C/c2c(N)n3nc(CC(=O)N4CCCCC4)sc3nc2=O)C=CC1=O	-7	-5	4.3	5	23	-10
COc1cccc(NC(=O)CCN2C(=O)c3cccc([N+](=O)[O-])c3C2=O)c1	-19	-13	-1.2	-2	0	14
CN1CCN(C(=S)NC(=O)c2cccc([N+](=O)[O-])c2)CC1	7	9	-0.5	0	-2	3
COCCNC(=O)CCn1nc(-c2ccc(C)cc2)ccc1=O	0	14	0.8	6	18	-2
CC(=O)Nc1cccc(-c2cc(NC(C)=O)c3ncc(-c4ccc(F)cc4)n3c2)c1	-7	-11	-0.7	.	.	4
Cn1c(NCCO)nc2c1c(=O)n(Cc1cccc(Cl)c1)c(=O)n2C	-15	?	.	-22	.	-8
O=C(CCCN1C(=O)/C(=C/c2cccs2)SC1=S)NNC(=O)c1ccncc1	-6	-13	-0.1	8	4	-10
CCOC(=O)c1c(C)[nH]c(C(=O)COC(=O)c2[nH]c(C)c(C(C)=O)c2C)c1C	5	-2	0.1	5	-11	-4
Cc1ccc(S(=O)(=O)C2(C(=O)Nc3ccc(C(C)C)cc3)CC2)cc1	5	10	1.7&6.3	7	49&63	-2
Cc1ccc(OC(=O)C2c3ccccc3Oc3ccccc32)cc1C	32	30	2.7	8	3	-2
CS(=O)(=O)c1ccc(-c2nnc(NC(=O)C3=COCCO3)o2)cc1	-18	-12	-0.5	10	-16	-3
Cc1ccc(-c2c3c(=O)n(C)c(=O)n(C)c3cn2N2CCOCC2)cc1	-3	-9	-1.4	-2	4	16
Cc1nc(SCC(=O)c2ccc(F)cc2)n[nH]1	8	3	-0.8	-14	6	5
Cc1noc(/C=C/N(C)C)c1S(=O)(=O)N1CCc2ccccc21	5	-2	0.6	-15	3	1
CCCCOc1ccc(S(=O)(=O)NNC(=O)C2Cc3c(ccc4ccccc34)O2)cc1 (stereo not drawn)	-6	-3	1.9	8	-14	-4
O=C(NCc1ccncc1)c1ccc(NS(=O)(=O)c2ccccc2)cc1	10	2	1.0	.	-5	2
COc1ccc(C(C(=O)NC2CCCC2)N(CCN2CCOCC2)C(=O)c2ccc(OC)c(OC)c2)cc1 (stereo not drawn)	9	6	0.3	-2	8	-10
CN(C1CCCCC1)S(=O)(=O)c1cc2c3c(c1)CCN3C(=O)CC2	7	1	0.4	0	2	-1
CC(C)N1CCOC1c1ccccc1 (stereo not drawn)	0	-2	0.9	.	10	-4
COc1ccc(CNS(=O)(=O)c2cccc(S(=O)(=O)N3CCOCC3)c2)cc1	16	-1	-0.2	6	0	-8

Single records, as listed above. Order of screens: CtBP-E1A blk	Six1-Eya2 inh	TRPML1 agonist	TRPV1 PAM	TRPML1 blocker	D2 PAM
Shown for CCCCn1cnc2c(Sc3c([N+](=O)[O-])ncn3C)nc(N)nc21 → -8	-6	-0.7	.	20	-6
Shown for COc1ccc(Sc2cc(C(F)(F)F)nc(-c3ccccn3)n2)cc1 → -3	6	0.3	6	-2	-2

Returning to the listing, starting 4 compounds before the break.
SMILES	CtBP-E1A blk	Six1-Eya2 inh	TRPML1 agonist	TRPV1 PAM	TRPML1 blocker	D2 PAM
COc1ccc(C(C(=O)NC2CCCC2)N(CCN2CCOCC2)C(=O)c2ccc(OC)c(OC)c2)cc1 (stereo not drawn)	9	6	0.3	-2	8	-10
CN(C1CCCCC1)S(=O)(=O)c1cc2c3c(c1)CCN3C(=O)CC2	7	1	0.4	0	2	-1
CC(C)N1CCOC1c1ccccc1 (stereo not drawn)	0	-2	0.9	.	10	-4
COc1ccc(CNS(=O)(=O)c2cccc(S(=O)(=O)N3CCOCC3)c2)cc1	16	-1	-0.2	6	0	-8
CCc1c(C(=O)NCCc2ccc(OC)c(OC)c2)[nH]c(C)c1C(C)=O	3	-8	-0.2	7	0	-6
COc1ccccc1NC(=O)C1Cc2ccccc2CN1C(=O)c1ccco1 (stereo not drawn)	3	-5	0.2	0	7	-2
O=C(NCC(=O)N1CCN(Cc2ccccc2)CC1)c1ccccc1Cl	3	-6	-0.5	.	-7	-6
CN(CC(=O)Nc1ccc(F)cc1)C(=O)COC(=O)c1cc(Br)c(Br)s1	.	-14	-0.7	.	2	-6
COc1ccccc1C1(O)CCN(C(=O)c2cccs2)CC1	-9	14	-1.2	2	-1	6
CC#CCCc1nc2ccccc2c(=O)n1N	16	5	0.1	3	-2	16
Cc1ccc(S(=O)(=O)c2nc(Nc3nccs3)sc2Cl)cc1	-20	-14	4.8	-4	14	-12
O=C(O)CN1CCc2ccccc2C1	-17	17	0.4	-2	4	-2
Cc1cccc(C2c3[nH]c4ccccc4c3CCN2C(=O)c2nn(C)c(=O)c3ccccc23)n1 (stereo not drawn)	0	-10	1.2	6	20	-1
O=C(Nc1ccc(Cl)cc1)P(=O)(O)c1ccccc1	1	11	-0.1	.	3	-15
CCc1ccc2c(CC(=O)Nc3cccc(S(=O)(=O)N4CCOCC4)c3)coc2c1	.	0	-1.3	4	-14	-9
O=C(Nc1ccc2oc(-c3cccnc3)nc2c1)c1ccc2c(c1)OCCO2	2	-9	0.1	1	-6	-3
COc1cccc(CNC(=O)[C@@H]2CCCN2C(=O)[C@H]2CCCCN2C(=O)c2ccccc2C)c1	10	13	-0.6	.	.	.
Cc1noc(NS(=O)(=O)c2ccc(NC(=O)c3cc(F)c(F)c(F)c3F)cc2)c1C	0	-10	-0.3	8	3	2
CCOc1ccc(S(=O)(=O)N2CCN(S(=O)(=O)c3ccc(C)c(C)c3)CC2)cc1	-22	2	1.7	?	12	-2
CCc1ccc(CN2CCC(Oc3ccc(C(=O)N4CCCC4)cc3)CC2)cc1	6	-3	-0.2	-4	4	-12
O=C(/C=C/c1ccc(Cl)cc1)NCc1cccs1	16	19	1.0	-21	8	-23
OC(COC(c1ccccc1)c1ccccc1)CN1CCOCC1 (stereo not drawn)	.	-6	-0.2	2	5	-2
CC(=O)N1CCC(N(CCN2CCOCC2)C(=S)Nc2cccc(C)c2C)CC1	17	8	0.4	2	0	-9
CC1(C)Cc2ccccc2-c2nc(NCCCO)[nH]c(=O)c21	-2	6	-0.2	.	20	-9
CCOc1c2ccccc2nn1CCOC	-20	12	0.9	?	6	-14
CCSC(=N)N	-7	4	0.2	-10	18	3
COc1ccc(C(=O)Nc2c(N)nc(SCC(=O)c3ccccc3)[nH]c2=O)cc1	5	1	0.3	27	36	-16
O=C1COc2ccccc2C(c2nc3ccccc3[nH]2)N1Cc1ccccc1 (stereo not drawn)	3	0	-1.1	.	.	.
CCOC(=O)N1CCN(Cc2nc3c(c(=O)[nH]c(=O)n3C)n2CCCc2ccccc2)CC1	2	1	3.2	4	34	-6
Continued.
SMILES	CtBP-E1A blk	Six1-Eya2 inh	TRPML1 agonist	TRPV1 PAM	TRPML1 blocker	D2 PAM
COc1ccc(/C=C2\SC(=O)N(CCC(=O)N3CCCCC3)C2=O)cc1OC	-9	19	1.5	11	-3	-2
Cn1c(N)c(NC(=S)NC2CCCCC2)c(=O)n(C)c1=O	-2	3	1.1	.	-12	-2
O=C(NNC(=O)c1ccc([N+](=O)[O-])cc1)NC1CCCCC1	.	1	0.1	-1	-11	4
COc1ccc2c(COC(=O)CCS(=O)(=O)c3ccc(C)cc3)cc(=O)oc2c1	0	17	1.3	26	14	-16
CC1CC(C)CN(c2ncc3c(n2)CC(c2ccccc2Cl)CC3=O)C1 (stereo not drawn)	4	7	-0.3	-1	-10	1
O=C(Nc1cccc(C(F)(F)F)c1)c1cc(S(=O)(=O)N2CCCCC2)ccc1N1CCOCC1	1	-2	0.9	-3	12	-7
Clc1ccc(-n2cnc3c(Cl)ncnc32)cc1Cl	0	3	-0.3	.	-17	-12
Cc1cc(NS(=O)(=O)c2ccccc2)c([N+](=O)[O-])cc1C	-5	1	0.3	14	2	-7
CC(C)(C)c1ccccc1NC(=O)COC(=O)CN1C(=O)NC2(CCCC2)C1=O	-2	-1	0.2	-3	-16	2
COC(=O)c1ccc(S(=O)(=O)N2CCCCCC2)n1C	7	7	3.9	19	-20	-1
O=C(Nc1ccc2c(c1)OCO2)c1cc(C2CCCCN2S(=O)(=O)Cc2ccccc2)on1 (stereo not drawn)	-12	-9	-0.7	.	.	-8
Cc1c(C=C(C#N)c2ccc([N+](=O)[O-])cc2)c(=O)n(-c2ccccc2)n1C	8	1	-0.1	.	8	-8
CCCC(=O)Nc1cc(-c2cn3cccnc3n2)ccc1OC	2	-2	-0.3	24	-8	11
O=C(O)c1ccccc1C(=O)OCc1c(-c2ccccc2)ncc2ccccc12	-8	-10	0.9	2	-20	-4
O=C(Nc1ccc(Cl)cc1)NC1CCCCC1Cc1ccco1 (stereo not drawn)	-3	-4	0.3	-9	-10	-5
O=C(N/N=C/c1ccc(O)c([N+](=O)[O-])c1)C(O)(c1ccccc1)c1ccccc1	-3	-6	0.5	24	15	-8
O=C(CSc1nc(O)cc(=O)n1-c1ccc(Cl)c(Cl)c1)Nc1ccc(Cl)cc1Cl	-3	-5	-0.1	-7	-6	-8
CCN(C(=O)c1cc2ccccc2oc1=O)c1ccccc1	2	5	-0.5	-13	-3	-19
CCOC(=O)c1cnc(COc2ccccc2Cl)[nH]c1=O	-1	-7	-0.2	4	2	-1
C=CCn1c(SCC(=O)Nc2ccc(OC)cc2)nc2ccccc2c1=O	-1	-8	0.4	12	-5	2
C=C(C)CSc1nnc(-c2ccc(C)cc2)n1N	6	7	0.5	-18	5	-15
CCOc1ccccc1-n1c(SCC(N)=O)nnc1-c1ccco1	-4	-2	1.3	21	19	-5
CC(=O)Nc1nc2n(n1)C(c1ccccc1)C=C(c1ccccc1)N2 (stereo not drawn)	9	-13	4.7	-8	-11	-3
COC(CNC(=O)c1ccc2c(c1)ncn2C1CCCCCC1)OC	7	4	.	-14	.	2
Cc1nc(SCC(=O)N(C)C2CCS(=O)(=O)C2)c2ccccc2n1 (stereo not drawn)	0	-1	-0.6	.	26	-5
CCCCN(C(=O)C1CC(=O)N(c2ccc(OC)cc2OC)C1)c1c(N)n(CC(C)C)c(=O)[nH]c1=O (stereo not drawn)	7	6	0.6	-2	6	1
CCc1nc(C(N)=O)c2[nH]c(=O)n(-c3ccccc3F)c2n1	4	2	-1.0	0	-5	-12

From PubChem BioAssay
